TRPV1 potentiator: human TRPV1 potentiation; Q8NER1; TRPV1-expressing cells, Fluo-8 calcium influx, capsaicin EC20 potentiation; host cell line not named in the record; control for the full effect not named in the record; potentiation, % at 8.33 µM; hit rate 0.02% among 320,000; AID 540277; active means potentiation above 80%; inconclusive means 30% to 80%; inactive means below 30%; further: 0% is about no effect
Target sequence (Q8NER1 whole entry, looked up): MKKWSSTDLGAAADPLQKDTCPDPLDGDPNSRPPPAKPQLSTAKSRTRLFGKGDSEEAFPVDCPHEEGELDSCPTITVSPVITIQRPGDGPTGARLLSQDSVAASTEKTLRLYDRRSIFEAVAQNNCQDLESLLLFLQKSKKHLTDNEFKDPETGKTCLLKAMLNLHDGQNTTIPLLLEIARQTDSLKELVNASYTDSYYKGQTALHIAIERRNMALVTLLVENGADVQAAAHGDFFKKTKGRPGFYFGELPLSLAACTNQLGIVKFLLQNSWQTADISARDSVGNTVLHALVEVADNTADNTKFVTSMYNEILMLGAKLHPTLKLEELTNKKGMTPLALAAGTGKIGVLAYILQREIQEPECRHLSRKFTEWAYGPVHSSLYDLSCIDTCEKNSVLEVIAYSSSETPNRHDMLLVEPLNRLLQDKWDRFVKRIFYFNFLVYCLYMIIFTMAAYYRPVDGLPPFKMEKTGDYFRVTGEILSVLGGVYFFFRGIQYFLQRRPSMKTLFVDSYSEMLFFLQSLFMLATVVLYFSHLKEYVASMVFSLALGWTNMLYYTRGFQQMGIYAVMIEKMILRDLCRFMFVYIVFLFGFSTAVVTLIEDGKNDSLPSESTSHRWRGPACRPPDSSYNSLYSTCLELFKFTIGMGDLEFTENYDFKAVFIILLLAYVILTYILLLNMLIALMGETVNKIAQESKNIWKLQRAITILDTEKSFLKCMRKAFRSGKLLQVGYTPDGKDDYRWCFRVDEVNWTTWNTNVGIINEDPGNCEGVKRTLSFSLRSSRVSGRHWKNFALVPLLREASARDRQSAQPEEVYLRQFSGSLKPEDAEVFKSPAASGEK
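Cells expressing TRPV1 were dye-loaded with Fluo-8 and read kinetically: 10 s baseline, 3 min after compound (agonist portion), then 2 min after EC20 capsaicin (allosteric enhancer portion). Calcium-bound dye fluorescence at 480/520 nm.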
ClpP mod: qHTS Assay for Activators of ClpP; purified B. subtilis ClpP, FRET peptide cleavage, 20 min; Potency, µM (top dose mostly 57.5 µM), inactives show at the top dose activity change, negative = active; hit rate 1.9% among 340,000; active = well fitted falling curve with a large enough effect; inconclusive = small, poorly fitted or top-dose-only effect; inactive = no such curve, though single readings can be large or run the other way; further: potency means the concentration at half of the fitted maximal effect; the source files actives as falling curves though it sought activators and does not explain the sign; nearly all actives have a fitted effect of over 65% in size; many hits overshoot -100%
Target sequence (P80244 whole entry, looked up): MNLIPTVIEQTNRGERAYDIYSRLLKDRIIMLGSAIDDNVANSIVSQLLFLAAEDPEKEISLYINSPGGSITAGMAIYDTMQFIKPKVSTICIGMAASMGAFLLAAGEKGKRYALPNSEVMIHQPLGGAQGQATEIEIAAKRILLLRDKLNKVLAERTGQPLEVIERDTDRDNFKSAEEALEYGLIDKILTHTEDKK
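ClpP 10 microg/mL final, pH 8 Tris/KCl buffer with BSA, glycerol, Tween-20; compound pinned in; FRET-FV substrate; RT 20 min; Ex320/Em430; ΔFRET vs ADEP 5.8 microM, DMSO, no enzyme.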
gsp ag: agonists of gsp mutant (McCune-Albright syndrome) | hit rate 0.13% among 340,000 | gsp mutant cells, cAMP HTRF, 30 min; control for the full effect not named in the record | AID 624287 | Potency, µM (series often up to 76.9 µM), without a hit: top-dose activation (cAMP increase), usual class: activators; active = well fitted activation curve with a large enough effect; inconclusive = small, poorly fitted or top-dose-only effect, or another doubt; inactive = no such curve, though single readings can be large or run the other way; cell line not stated here;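 further: phosphodiesterase inhibitor Ro 20-1724 added with compounds to block cAMP breakdown; potency means the concentration at half of the fitted maximal effect; nearly all actives have a fitted effect of over 60% in size; about a fifth of the inactives were tested at one dose only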
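Cells stably selected in G418 were plated at 2000/well, grown 16-24 hr, then given compounds in DMSO with the PDE inhibitor […] (300 uM solution added) for 30 min at 37C; cAMP was read by HTRF.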
gsp antag: gsp mutant antagonism | gsp-mutant cells, cAMP HTRF, 30 min; control for the full effect not named in the record | Potency, µM (highest dose often 76.9 µM), for inactives: at the top dose activity change, negative = inhibition, hits mostly inhibitors | hit rate 0.4% among 340,000; active = falling curve of any shape with a large fitted effect; inconclusive = falling curve, mostly with a smaller effect; inactive = flat or rising curve; cell line not stated here;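 further: intracellular cAMP measured with PDE inhibitor Ro 20-1724 present during compound exposure; potency means the concentration at half of the fitted maximal effect; on the % scale 0 is the no-effect control and ±100 the full control effect; nearly all actives have a fitted effect of over 65% in size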
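HTRF cAMP measurement after 30 min RT detection following 30 min, 37C compound treatment alongside […] (added as 300 uM solution) in G418-selected cells seeded at 2000/well and grown 16–24 h.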
Menin MLL FP FL: displaces fluorescein MLL peptide from human menin. 290,000 tested, under 10 active. FP activity change, % at 61.4 µM. Fluorescence polarization, fluorescein-MLL peptide displacement from menin. AID 1766; inconclusive = falling polarisation curve, or a change in total fluorescence; inactive = total fluorescence flat and polarisation flat or rising; no compound was filed as active; the % refers to the polarisation; negative = inhibition;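 further: % of control where 0% means no effect; inhibitors lower the polarisation; unlabelled MLL peptide was the positive control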
CtBP-E1A inh: blocks the CtBP interaction with E1A. AlphaScreen GST-E1A/His-CtBP binding, 1536-well; stronger effect = lower value; control for the full effect not named in the record. activity change, % (test concentration not listed). hit rate 0.49% among 340,000; in the data active means activity change below about -65%; inconclusive means about -30% to -65%; inactive means above about -30%; further: on the % scale 0 is the no-effect control and ±100 the full control effect; compound concentration not given in the record
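In 5 uL wells, 23 nL compound meets equimolar GST-E1A and His-CtBP (5X stock 125 nM each) for 2 h, 37 °C. Beads (5X, 50 ug/mL) then 1 h, 37 °C, dark.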
Sfp PPTase inh: blocks B. subtilis Sfp PPTase activity | Biochemical Sfp PPTase activity, qHTS | Q9F4F7 | hit rate 3.5% among 310,000 | Potency, µM, for the others: max response, negative = inhibition, usual class: inhibitors; active means well fitted inhibition curve with a large enough effect; inconclusive means small, poorly fitted or top-dose-only effect, or another doubt; inactive means no such curve, though single readings can be large or run the other way;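 further: the enzyme is Sfp with the accession as filed and its product quenches rhodamine fluorescence; potency means the concentration at half of the fitted maximal effect; 0% = enzyme reaction without inhibitor and -100% = no enzyme wells; top concentration of the series not given in the record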
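Buffer: 50 mM Hepes-Na pH 7.6, 10 mM MgCl2, 0.01% Nonidet P-40, 0.01% BSA. Enzyme 15 nM, pre-exposed to compound 15 min; substrates then added and fluorescence change tracked over 30 min.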
* = called active by the depositor; ? = inconclusive; . = no result given; [ ] = dose if it differs, or a comment.

SMILES	TRPV1 potentiator	ClpP mod	gsp ag	gsp antag	Menin MLL FP FL	CtBP-E1A inh	Sfp PPTase inh
COc1cccc(NC(=O)CN(C)C(=O)c2ccc3c(c2)CC(c2ccccc2)OC3=O)c1 (centres undefined)	6	-6.3%	-11%	-12%	.	-1	.
Cc1cccc(C)c1OCc1cc(C(=O)N2CCCC2c2nonc2C)no1 (centres undefined)	3	-4.0%	-40%[inhibitor]	2%	.	4	4%
Cn1c(SCC(=O)NC2CCS(=O)(=O)C2)nnc1-c1ccco1 (centres undefined)	7	2.4%	3%	8%	.	-3	.
O=C1CSC(=S)N1/N=C/c1ccc(O)c(O)c1O	-7	-0.5%	12%	-40%	?	-94*	3.2µM*
Cc1cc(C(=O)Nc2ccc3c(c2)CCC3)ccc1[N+](=O)[O-]	.	.	-2%	-1%	.	1	.
Cc1oc2ccccc2c1-c1cn2c(n1)SCC2	12	40%	-11%	-6%	6.1	-19	12%
O=C(Cn1nnc(-c2ccccc2Cl)n1)N/N=C/c1ccc2c(c1)OCO2	3	-16%	0%	-2%	4.3	-4	-21%
CC1(C)CC(=O)C(C2C3=C(CC(C)(C)CC3=O)Oc3c(Br)cc(Br)cc32)=C(O)C1 (centres undefined)	-12	0.0%	12%	?	-0.4	.	1%
O=C(C1=C[C@H](c2ccc3c(c2)OCO3)C[C@H](OCCCCO)O1)N1CCN(Cc2ccc3c(c2)OCO3)CC1	16	-0.4%	.	-13%	1.5	-3	3%
CCCCN(Cc1nc2ccccc2c(=O)[nH]1)C(=O)c1nn(C)c(=O)c2ccccc12	-2	-1.9%	5%	-1%	.	4	.
Fc1ccccc1NC(=S)NN(Cc1ccccc1)c1ccccc1	-3	-0.6%	?	-1%	0.5	-1	3%
O=C(Nc1cccc(CCc2ccccn2)c1)c1ccc(Cl)cc1	-3	.	.	.	-1.7	.	-5%
O=C(COC(=O)c1n[nH]c2ccccc12)c1cccc(Br)c1	9	-30%	-1%[15.4 µM]	-7%	.	-2	5%
Cc1ccc(N(Cc2cc(=O)[nH]c3ccccc23)C(=O)C(C)C)cc1	7	-23%	18%	-18%	3.3	-9	-2%
CCOC(=O)c1c(-c2ccccc2)nc2ccccn12	-3	-10%	?	5%	-1.7	4	32%[activator]
N#C/C(=C(/O)c1cccs1)c1nnc2n1CCCCC2	3	.	-3%[15.4 µM]	-9%	-1.0	0	?
O=S1(=O)c2ccc(Br)cc2OC(COCc2ccccc2)CN1Cc1ccccc1 (centres undefined)	.	1.2%	.	-1%	.	15	.
COc1cccc(/C=C/c2ccc3ccccc3n2)c1OC(C)=O	-3	.	24%[15.4 µM]	-14%	0.4	.	-22%
CCN1CCCC1CNC(=O)c1cc2c(-c3cccc(OC)c3)nn(C)c2s1 (centres undefined)	-22	32µM*	-20%	12%	-0.4	-22	10%
COc1ccccc1-c1nnc(-c2ccc(C)cc2)o1	.	.	-9%[15.4 µM]	-16%	.	-9	.
Cc1nnc(SCC(=O)N(C2CCCCC2)C2CCS(=O)(=O)C2)n1N (centres undefined)	-6	.	-12%[15.4 µM]	8%	.	-12	.
CC1(C)Cc2ccccc2-c2nnnn21	?	0.5%	-8%	4%	0.6	16	3%
O=C(NCc1ccccc1)C1=C[C@@H](c2csc3ccccc23)C[C@@H](OCc2ccc(CO)cc2)O1	8	-6.9%	3%	?	5.9	-21	-1%
CC1CCC(NC(=O)CC(NC(N)=O)c2ccccc2Cl)CC1 (centres undefined)	-18	.	1%[15.4 µM]	2%	1.6	4	6%
Cc1cc(NC(=O)CCC(=O)N(CC(=O)NC2CCCC2)c2ccc(Cl)c(Cl)c2)no1	-3	.	10%[15.4 µM]	2%	.	3	14%
COc1ccc(CC(=O)N2CCN(S(=O)(=O)c3ccc(Cl)s3)CC2)cc1	-4	-1.7%	8%	-3%	.	.	.
O=c1c2ccccc2nnn1Cc1ccc(Br)cc1	-15	-0.2%	-5%	-3%	8.1	22	0%
CCOc1cc(NC(=S)NCCCOC)c(OCC)cc1NC(=O)c1cccs1	-9	2.7%	-20%	2%	4.3	0	-10%
CCC(C)(C)NC(=O)c1ccccc1Oc1ccccc1	-2	.	2%	-10%	-1.8	-23	-5%
CCSc1ccccc1C(=O)N1CCN(c2ccc([N+](=O)[O-])cc2)CC1	-5	-1.6%	-22%	-19%	0.2	.	-22%
COc1ccccc1NC(=O)CCN1CC(C)OC(C)C1 (centres undefined)	6	-0.9%	9%	5%	2.5	-3	13%
COc1ccccc1NC(=O)C1=C(C)NC(SCC(=O)Nc2ccc(C(=O)O)cc2)=C(C#N)C1c1cccs1 (centres undefined)	-1	.	-1%[15.4 µM]	-26%	3.1	-8	-28%
O=C(CCC1CCCCC1)Nc1ncn[nH]1	3	-3.2%	-4%	-1%	1.7	-7	11%
CCCCC(=O)OCCNC(=O)c1cc2ccccc2oc1=O	5	25µM*	-1%	9%	2.0	1	10%
COn1c(=O)c(-c2ccc(C)cc2)[n+]([O-])c2ccccc21	4	-9.7%	-7%	-1%	-3.9	.	-4%
COc1ccc(Cl)cc1C(=O)Nc1nc2ccc(S(C)(=O)=O)cc2s1	-14	.	.	.	0.8	.	8%

Reformatted comma-delimited: 2 of the compounds above
compound,TRPV1 potentiator,ClpP mod,gsp ag,gsp antag,Menin MLL FP FL,CtBP-E1A inh,Sfp PPTase inh
CCC(C)(C)NC(=O)c1ccccc1Oc1ccccc1,-2,.,2%,-10%,-1.8,-23,-5%
CCSc1ccccc1C(=O)N1CCN(c2ccc([N+](=O)[O-])cc2)CC1,-5,-1.6%,-22%,-19%,0.2,.,-22%

Further structures follow.
SMILES	TRPV1 potentiator	ClpP mod	gsp ag	gsp antag	Menin MLL FP FL	CtBP-E1A inh	Sfp PPTase inh
CNC(=O)c1ccc2cc(OC)c(OC)cc2c1	.	3.5%	-31%[inhibitor]	.	.	4	.
COc1ccc(C(CNC(=O)c2ccc(OCc3csc(C)n3)cc2)N2CCCC2)cc1 (centres undefined)	.	2.0%	-46%[inhibitor]	.	.	1	.
COC(=O)c1cc2ccsc2n1CC(=O)N(C)c1ccccc1	?	-3.8%	-4%	-8%	-2.1	4	-2%
N#C/C(=C\c1ccc[nH]1)C(=O)N1CCCCC1	3	.	12%	8%	-1.0	-10	14%
CCOC(=O)CN1CC23C=CC(O2)C(C(=O)NC2CCCCC2)C3C1=O (centres undefined)	24	-0.5%	17%	-1%	-2.2	6	17%
CC(C)Cn1c(SCC(=O)N2CCN(S(=O)(=O)c3ccccc3)CC2)nc2ccccc21	1	1.1%	-22%	?	0.4	35	-2%
O=C(Nc1cccnc1)c1cc(-c2cccc(Br)c2)nc2ccccc12	-12	-3.2%	0%[15.4 µM]	-13%	.	-2	-4%
CC(C)NC(=O)c1cccc(Cn2cc(Cl)cn2)c1	2	-0.6%	6%	8%	1.8	6	13%
O=C(CN1CCN(Cc2ccccc2)CC1)Nc1ccc(-n2cnnn2)cc1	-16	.	7%[15.4 µM]	6%	-1.2	1	17%
CC(=O)N1CCN(c2ccccc2NC(=O)Cc2ccc(Cl)cc2)CC1	2	-0.4%	-22%[15.4 µM]	-34%	1.1	1	24%
CCN(CC)CCN1C(=O)C(O)=C(C(=O)c2sc(C)nc2C)C1c1cccnc1 (centres undefined)	-5	-3.8%	1%	11%	13	-1	2%
COc1cc(OC)c(NS(=O)(=O)c2c(C)[nH]c(=O)[nH]c2=O)cc1Cl	8	-1.3%	-3%	10%	2.7	3	12%
O=C(c1cccc(Br)c1)N1CCN(C2=NS(=O)(=O)c3ccccc32)CC1	7	0.9%	-8%[15.4 µM]	-14%	-5.3	10	16%
CC(C)(O)C(=O)NN(C(=O)c1ccccc1)c1cccc(Br)c1	-2	-1.4%	5%	4%	2.0	-6	9%
Cc1ccc(O)c(C2=NNC(c3ccc(Cl)cc3)C2)c1 (centres undefined)	-4	-14%	6%	-9%	3.3	-12	14%
CC(=O)c1ccc(NC(=O)/C(=C\c2ccccc2)NC(=O)c2ccco2)cc1	7	.	10%[15.4 µM]	-4%	-0.1	2	-3%
CCCCCCSc1ccc([C@H]2N[C@@](CC(C)C)(C(=O)OC)[C@H]3C(=O)N(C)C(=O)[C@@H]23)cc1OC	-6	?	6%	-9%	.	-10	.
Cc1cc(Cl)c(OCCCN2CCCCC2)c(Br)c1	7	1.2%	-9%[15.4 µM]	14%	2.2	1	-5%
COc1ccc(/C=C(/NC(=O)c2cccc([N+](=O)[O-])c2)C(=O)O)cc1	-4	0.5%	-21%	-3%	-8.2	5	4%
CC(=O)Oc1cc2c(C(C)=O)coc2c2ccccc12	-1	-1.2%	14%	0%	1.1	6	-2%
O=C(Nc1ccc(OC(F)(F)F)cc1)c1ccc2c(c1)no[n+]2[O-]	.	0.8%	18%[15.4 µM]	?	.	9	.
CCN(CC)S(=O)(=O)c1cccc(-c2nnc(SCc3nnc(-c4ccccc4)o3)n2C)c1	4	-3.1%	0%	-7%	0.9	3	12%
COc1ccc(CCNC(=O)COC(=O)Cc2cccc(F)c2)cc1	-17	.	-16%[15.4 µM]	8%	.	1	.
CCOC(=O)c1sc2nc(N3CCOCC3)c3c(c2c1N)CCN(Cc1ccccc1)C3	7	25µM*	17%	1%	-1.8	-14	-9%
COC(=O)c1cccc(NC(=S)N2CCN(C)CC2)c1	-2	13µM*	7%[15.4 µM]	5%	9.4	-5	5%
COc1ccc(C(=O)NNC(=O)CSc2nnc(-c3cccnc3)o2)cc1	-23	.	-19%[15.4 µM]	12%	-0.5	-11	-21%
Cc1ccc(NC(=O)OCc2cccs2)cc1	-6	.	.	.	0.8	.	11%
CC(C)(C)c1ccc(N2C(=O)Cc3c2nc(N)c(C#N)c3N)cc1	0	-0.5%	?	-10%	3.6	-4	-3%
CC(=O)Nc1c(C(N)=O)oc2ccc(Cl)cc12	-7	-20%	?	4%	1.7	-13	-6%
CC(CCc1ccccc1)NC(=O)CN1CCN(Cc2ccccc2)C1=O (centres undefined)	-4	-0.7%	-1%	-4%	4.2	3	17%
COc1cc([N+](=O)[O-])ccc1NC(=O)COC(=O)CCOc1ccc(C)cc1	7	-3.7%	4%	-25%	.	2	.
N#CCC(=O)Nc1ccc(C(=O)NCC2(N3CCOCC3)CCCCC2)cc1	-2	1.5%	-1%	7%	.	-6	.
COc1cc(OC)cc(C(=O)NCCN2C(=O)S/C(=C\c3cccs3)C2=O)c1	11	1.3%	-65%[inhibitor]	28µM*	5.3	.	-4%
CCCCC1(C)NC(=O)c2c(C)sc(C(=O)OCC)c2N1 (centres undefined)	-14	?	-6%	-4%	-1.1	4	-3%

Rows were taken by chance; any-hit rate near 5.3%.
